# Source: PubChem (National Center for Advancing Translational Sciences (NCATS))
# Marburg entry inh: qHTS for inhibitors of binding or entry into cells for Marburg Virus; Marburg virus pseudotyped entry inhibition, cell reporter; control for the full effect not named in the record; about a third of the inactives were read at about 46 µM; Potency, µM (top dose mostly 37.8 µM), inactives show at the top dose activity change, negative = inhibition, usual class: inhibitors; 1.8% of 300,000 active; AID 540276, 2011; active = well fitted inhibition curve with a large enough effect; inconclusive = small, poorly fitted or top-dose-only effect, or effect the other way; inactive = flat fitted curve, though single readings scatter; tested in HEK293 cells; about a fifth of its hits are not listed in these tables; also: % is scaled to controls: 0 for no effect and ±100 for the full control effect; luciferase read-out
# RE007 growth inh: qHTS Assay for Inhibitors of the HIV-1 protein Vpr; S. pombe RE007 Vpr strain, BacTiter-Glo ATP luminescence, 24 h; control for the full effect not named in the record; AID 651644, 2012; Potency, µM (doses to about 92.2 µM), for inactives: at the top dose activity change, negative = less growth; 0.21% of 360,000 active; active = well fitted falling curve with a large enough effect; inconclusive = small, poorly fitted or top-dose-only effect; inactive = no such curve, though single readings can be large or run the other way;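 also: % is scaled to controls: 0 for no effect and ±100 for the full control effect; nearly all actives have a fitted effect of over 50% in size; the assay follows cell death caused by Vpr and the record does not say whether a fall means rescue or toxicity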
#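 Fission yeast RE007 carrying one integrated HIV-1 vpr copy, seeded at OD 0.01 in PMG+AL medium with 23 nL pinned compound. Grown 24 h at 30 degrees; viability read by BacTiter-Glo luminescence after 5 min.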
# Cruzain Triton: qHTS Assay for Promiscuous and Specific Inhibitors of Cruzain (with detergent); Cruzipain (Trypanosoma cruzi), P25779; purified cruzain, Z-FR-AMC fluorescence, 0.01% Triton; AID 1478, 2009; Potency, µM, without a hit: max response, negative = inhibition, most hits filed as inhibitors; 0.43% of 200,000 active;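 also: plate controls were neutral wells for no effect and buffer without enzyme for full effect; nearly all actives have a fitted effect of over 40% in size; top concentration of the series not given in the record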
# Target sequence (P25779 123-467 limits assumed): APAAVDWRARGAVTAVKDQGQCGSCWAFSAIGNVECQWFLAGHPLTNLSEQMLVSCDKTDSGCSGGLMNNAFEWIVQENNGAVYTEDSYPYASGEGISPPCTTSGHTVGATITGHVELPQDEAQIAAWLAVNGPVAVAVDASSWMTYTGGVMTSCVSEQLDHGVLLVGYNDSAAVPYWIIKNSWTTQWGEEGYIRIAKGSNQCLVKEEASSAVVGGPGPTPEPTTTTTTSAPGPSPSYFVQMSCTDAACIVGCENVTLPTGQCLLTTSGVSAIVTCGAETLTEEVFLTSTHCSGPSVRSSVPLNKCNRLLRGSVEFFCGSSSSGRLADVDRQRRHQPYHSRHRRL
#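 Purified cruzain (1.5 nM final) was preincubated with compounds for 15 min at room temperature in 100 mM sodium acetate pH 5.5, 5 mM DTT, 0.01% Triton X-100. Reaction started with 2 uM Z-FR-AMC; AMC fluorescence change over 60 s gave activity.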
# StopGo reporter: High Throughput Screening for Foot and Mouth Disease Virus Antivirals; human cells with a luciferase reporter of 2A StopGo recoding; control for the full effect not named in the record; Potency, µM (highest dose often 57.9 µM), for inactives: at the top dose signal change, negative = less light; 1.2% of 410,000 active; AID 1159524, 2015; active = well fitted falling curve with a large enough effect; inconclusive = small, poorly fitted or top-dose-only effect; inactive = no such curve, though single readings can be large or run the other way; tested in HEK293T cells; also: % is scaled to controls: 0 for no effect and ±100 for the full control effect; nearly all actives have a fitted effect of over 45% in size; luciferase light after 4 h
# SARS PLP yeast: qHTS of Yeast-based Assay for SARS-CoV PLP; Potency, µM (highest dose often 32.9 µM), for inactives: top-dose activity, positive = growth rescue; S. cerevisiae expressing SARS-CoV PLpro, growth rescue; control for the full effect not named in the record; 0.19% of 330,000 active; active means well fitted rising curve with a large enough effect; inconclusive means small, poorly fitted or top-dose-only effect; inactive means no such curve, though single readings can be large or run the other way; also: 0% is about no effect; nearly all actives have a fitted effect of over 55% in size; growth read by luminescence after 48 h
# LASV entry inh: qHTS for Inhibitors of binding or entry into cells for Lassa Virus; Lassa virus pseudotype entry inhibition, cell reporter; control for the full effect not named in the record; Potency, µM (highest dose often 37.9 µM), without a hit: at the highest dose activity change, negative = inhibition, usual class: inhibitors; 1.2% of 300,000 active; active means well fitted inhibition curve with a large enough effect; inconclusive means small, poorly fitted or top-dose-only effect, or effect the other way; inactive means flat fitted curve, though single readings scatter; tested in HEK293 cells; also: % is scaled to controls: 0 for no effect and ±100 for the full control effect; nearly all actives have a fitted effect of over 50% in size; luciferase read-out
# NS1 inh: qHTS Assay for Inhibitors of Influenza NS1 Protein Function; S. cerevisiae slowed by influenza A NS1, growth recovery by OD600; Potency, µM (highest dose often 46.1 µM), for the others: top-dose activity, positive = more growth; 0.4% of 270,000 active; active means well fitted rising curve with a large enough effect; inconclusive means small, poorly fitted or top-dose-only effect; inactive means no such curve, though single readings can be large or run the other way; also: nearly all actives have a fitted effect of over 50% in size
#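 S. cerevisiae expressing influenza A NS1, grown in glucose, washed, then diluted 1:100 into pH 6.0 -URA galactose medium with 23 nl compound. Growth recovery read as OD600; NS1-free strain serves as control.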
# Cruzain inh noDet: qHTS Assay for Promiscuous and Specific Inhibitors of Cruzain (without detergent); 2.3% of 200,000 active; Potency, µM, without a hit: max response, negative = inhibition, usual class: inhibitors; Cruzipain (Trypanosoma cruzi), P25779; purified cruzain, Z-FR-AMC fluorescence, no detergent; AID 1476, 2009;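 also: plate controls were enzyme without inhibitor for no effect and buffer without enzyme for full effect; nearly all actives have a fitted effect of over 40% in size; top concentration of the series not given in the record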
#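 Purified cruzain at 1.5 nM, pre-incubated 15 min with compound at room temperature in 100 mM sodium acetate pH 5.5, 5 mM DTT, 0.00005% Triton X-100. Reaction started with 2 uM Z-FR-AMC; AMC fluorescence increase over 60 s gives rate.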
# The depositor's hits bear a star; ? = inconclusive; . = no result given; ! = a repeat was not active; [ ] = another dose, or the depositor's remark. Unless noted, calls follow the shape of the dose curve; as a rule, active = well fitted curve in the direction sought with a large enough effect; inconclusive = small, poorly fitted or top-dose-only effect, or another doubt; inactive = no such curve, though single readings can be large; an effect the other way counts as inactive or inconclusive. Potency is read from the fitted curve at half-maximal effect.
# Each structure is followed by: Marburg entry inh | RE007 growth inh | Cruzain Triton | StopGo reporter | SARS PLP yeast | LASV entry inh | NS1 inh | Cruzain inh noDet
- O=C(c1ccc(S(=O)(=O)N2CCCCC2)cc1)N1CCCc2ccccc21
  10%[46.1 µM] | 7% | -3.2% | -12% | 4% | ? | -50% | -16%
- CCN(CC)S(=O)(=O)c1cc(C(=O)N(C)CC(=O)Nc2ccc(Cl)cc2)ccc1Cl
  ? | -5% | -6.7% | 8% | 16% | ? | -21% | ?
- NC(=O)c1ccccc1NC(=O)CSc1cn[nH]n1
  -10%[46.1 µM] | 2% | . | 0% | -1% | 12% | 12% | .
- O=C(Oc1ccccc1)c1ccc(NC(=O)c2ccco2)cc1
  ? | -1% | -14% | -1% | -8% | 2% | -7% | -5%
- O=C(CSc1nnnn1C1CCCCC1)N1c2ccccc2Sc2ccccc21
  ? | -16% | 3.7% | -22% | 3% | ? | 30% | ?
- Cc1ccccc1C(=O)Nc1cccc(C(=O)OCc2cc(=O)n3c4c(sc3n2)CCCC4)c1
  . | . | 1.1% | -13% | . | ? | . | 9%
- Cc1cc(C)nc(-n2nc(C)cc2NC(=O)CN2CCCC2)n1
  . | 4% | . | -5% | 1% | . | 4% | .
- Cc1ccc(NCCc2ccc(C)nc2)cc1
  7% | -22% | 1.1% | 29% | -2% | 29% | -1% | -1%
- CCN(CC)C(=O)c1[nH]cnc1C(=O)N[C@@H](C)C(=O)OC(C)(C)C
  . | 4% | . | -13% | 0% | . | 0% | .
- O=C(c1noc2c1CCCC2)N1CCN(Cc2ccccc2)CC1
  -4% | ? | 1.9% | 8% | -1% | 5% | -3% | -3%
- COCCCNC(=S)N1CCN(C(c2ccccc2)c2ccccc2)CC1
  ? | 5% | . | 13% | 14% | -4% | -9% | .
- Cc1ccc(/C=C/S(=O)(=O)N2CCC(C(=O)O)CC2)cc1
  18% | 7% | 0.8% | 18% | 0% | 0% | 1% | ?
- CCCCn1c(-c2nonc2N)nc2ccccc21
  ? | -7% | -11% | -16% | 3% | -25% | 4% | -7%
- Cn1cnc(S(=O)(=O)N2CCCC(C(=O)NCc3ccccc3Cl)C2)c1 (configuration not stated)
  . | . | -1.8% | 25% | . | -10%[46.1 µM] | . | -10%
- C[C@]12CC[C@H](O)CC1=C([N+](=O)[O-])CC1C2CC[C@@]2(C)C1CC[C@@H]2O (some centres not stated)
  ? | 2% | . | -19% | -2% | -22% | . | .
- O=C(C=Cc1ccc2c(c1)OCO2)OCC=Cc1ccc2c(c1)OCO2
  -2%[46.1 µM] | 7% | . | -3% | . | -10%[46.1 µM] | . | .
- Cc1ccc(C(=O)N(c2c(C)n(C)n(-c3ccccc3)c2=O)C(C)C)cc1
  -20% | 11% | 8.5% | . | ? | -12% | 3% | -8%
- CCC/C(=N\NC(=O)C1CC1)c1ccccc1
  4%[46.1 µM] | 8% | . | -10% | . | -1%[46.1 µM] | . | .
- CCCN1CCC(=O)N([C@H](CSc2ccccc2)Cc2ccccc2)CC1
  . | 4% | . | -6% | -1% | . | -3% | .
- Nc1nnc(SCC(=O)N2CCc3ccccc32)n1-c1ccccc1
  -5%[46.1 µM] | -3% | -1.8% | -20% | 3% | -18% | -4% | 0%
- O=C(COC(=O)Cc1c(Cl)cccc1Cl)Nc1ccc(OC(F)(F)F)cc1
  13% | -8% | -9.4% | -16% | 6% | -13% | -6% | -6%
- CC(=O)c1cccc(NS(=O)(=O)c2ccc3c(c2)NC(=O)CC(=O)N3)c1
  ? | . | -0.8% | 3% | . | 2%[46.1 µM] | . | 0%
- O=C(CN(Cc1cccs1)C(=O)CCC(=O)Nc1ccccn1)NCc1ccccc1
  ? | -20% | . | 5% | 1% | 8% | -4% | .
- CC(=O)O[C@@H]1[C@H]2CC[C@@H]3[C@]1(C[C@@H](OC(C)=O)[C@@]1(O)C([C@@H]4O[C@@H]4C1(C)C)[C@]3(C)O)C[C@@]2(C)O (some centres not stated)
  4% | 3% | 6.0% | -18% | -10% | 7% | -5% | 4%
- CCn1c2ccccc2c2nnc(NN)nc21
  ? | -4% | -25% | -14% | 19% | -5% | -10% | ?
- O=C(COc1ccc(Cl)cc1Cl)Nc1ccc(-c2ccc(N3CCOCC3)nn2)cc1
  23%[46.1 µM] | 9% | . | -18% | 2% | 6% | . | .
- Cc1ccc(C2CC(=O)c3cnc(N4CCN(c5ccccc5)CC4)nc3C2)cc1 (configuration not stated)
  5% | 2% | -2.1% | -3% | 0% | -13% | -15% | ?
- O=S(=O)(Nc1ncccn1)c1ccc(NS(=O)(=O)c2cccc(Cl)c2Cl)cc1
  24%[46.1 µM] | 2% | . | -2% | 2% | -13% | . | .
- Cc1cc2nc3c(c(C(F)(F)F)n2n1)CCCC3
  14%[46.1 µM] | -9% | . | 4% | 0% | ? | 2% | .
- O=C(/C=C/c1c(Cl)cccc1Cl)NCCCn1ccnc1
  -12%[46.1 µM] | 2% | . | 4% | . | 8% | . | .

# 2 of the compounds above, with tabs.
canonical_smiles	Marburg entry inh	RE007 growth inh	Cruzain Triton	StopGo reporter	SARS PLP yeast	LASV entry inh	NS1 inh	Cruzain inh noDet
CCCN1CCC(=O)N([C@H](CSc2ccccc2)Cc2ccccc2)CC1	.	4%	.	-6%	-1%	.	-3%	.
Cc1ccc(NCCc2ccc(C)nc2)cc1	7%	-22%	1.1%	29%	-2%	29%	-1%	-1%

# (list continues)
# Each structure is followed by: Marburg entry inh | RE007 growth inh | Cruzain Triton | StopGo reporter | SARS PLP yeast | LASV entry inh | NS1 inh | Cruzain inh noDet
- COC(=O)Cn1c2ccc(C)cc2c2nc3ccccc3nc21
  . | 9% | . | 2% | -2% | . | -5% | .
- Cc1ccc(S(=O)(=O)N2CCN(C(=O)C(C)Cn3nc(C)c(C)c3C)CC2)cc1C (configuration not stated)
  -14% | -6% | . | 7% | -4% | 9% | -17% | .
- Cc1nc2c(-c3ccc(F)cc3)c(C)nn2c(C)c1CCC(=O)Nc1ccc(F)cc1F
  . | -12% | . | -29% | -1% | . | 1% | .
- O=C(NCCCN1CCOCC1)c1cc2c(=O)[nH]c3ccccc3c2s1
  10µM* | -8% | -6.8% | -18% | 5% | 2% | -17% | -10%
- Cc1ccc(-c2nc(C)sc2CC(=O)Nc2cccc(C)c2C)cc1
  ? | -1% | -4.3% | -9% | 10% | -2% | 2% | 26%
- COc1ccc(OC)c(N(CC(=O)Nc2cccnc2)S(=O)(=O)c2ccc(OC)c(OC)c2)c1
  2.8µM*! | -2% | 2.4% | -22% | 0% | -1% | -1% | 11%
- CC(=O)Nc1ccccc1NC(=O)c1cccc2ccccc12
  1% | 4% | -1.1% | -5% | -16% | 3% | 14% | 13%
- Cc1ccc(C(=O)Nc2cccc(C(=O)N/N=C/c3ccccc3F)c2)cc1
  4%[46.1 µM] | -1% | . | 14% | -4% | ? | 22% | .
- COCCn1c(SCC(=O)NCCCN2CCCC2=O)nc2ccccc2c1=O
  3% | 23% | . | 0% | 0% | ? | . | .
- COc1ccc(CN(Cc2cc3cccc(C)c3[nH]c2=O)C(=O)N(C)C)cc1
  -9% | -5% | -4.1% | 0% | 4% | -7% | -15% | 1%
- Cc1ccc(NC(=O)/C(=C\c2ccccc2)NC(=O)/C=C/c2ccccc2)cc1
  2% | -7% | -1.1% | 8% | 0% | -7% | ? | ?
- Cc1cc(NC(=O)C23CC4CC(C2)CC(n2cnc([N+](=O)[O-])n2)(C4)C3)no1
  . | 21% | . | -1% | 1% | . | -2% | .
- COc1ccc(CC(=O)Nc2ccc(C#N)c(Cl)c2)cc1S(=O)(=O)N1CCOCC1
  -10% | -18% | . | -23% | -4% | ? | 12% | .
- CCOC(=O)c1cc(C(=O)OCC)cc(-n2c(C)cc(C(=O)CN3CCOCC3)c2C)c1
  ? | 14% | -5.9% | -12% | 26% | 3% | -7% | 0%
- Cc1ccc(Cl)cc1N1CCN(C(=S)NCc2ccco2)CC1
  ? | 3% | . | ? | -6% | ? | -64% | .
- COc1ccc(C2(C#N)CCN(C)CC2)cc1
  ? | 16% | -4.7% | -4% | 10% | 5% | -3% | -4%
- O=C(Cc1ccccc1)N/N=C\c1ccc(Br)o1
  4% | -2% | 0.5% | 11% | -1% | -7% | -17% | 2%
- C=C1CCN(C(CC(C)C)C(=O)OC)S(=O)(=O)c2ccccc21 (configuration not stated)
  . | 1% | . | -18% | -1% | . | -3% | .
- Cc1ccc(-c2noc(-c3cc4ccccc4oc3=O)n2)cc1
  ? | -5% | 2.2% | 36%[activator] | 2% | 4% | -6% | ?
- Cn1c(=O)n(CC(=O)NCC2CCCO2)c(=O)c2c3c(sc21)COC(C)(C)C3 (configuration not stated)
  21%[46.1 µM] | -3% | . | 6% | -2% | -20%[46.1 µM] | 4% | .
- CCOC(=O)N1CCN(c2c(NCC3CCCO3)c(=O)c2=O)CC1 (configuration not stated)
  . | 3% | -0.6% | -18% | 8% | . | 6% | 1%
- COc1ccc(-c2nnc(N(C)C(=O)c3ccno3)s2)cc1
  -6% | 0% | -5.7% | 38%[activator] | -36% | 1% | 0% | -8%

# Among those listed so far, 2 have two or more sulfur atoms:
# Each structure is followed by: Marburg entry inh | RE007 growth inh | Cruzain Triton | StopGo reporter | SARS PLP yeast | LASV entry inh | NS1 inh | Cruzain inh noDet
- O=C(CSc1nnnn1C1CCCCC1)N1c2ccccc2Sc2ccccc21
  ? | -16% | 3.7% | -22% | 3% | ? | 30% | ?
- O=S(=O)(Nc1ncccn1)c1ccc(NS(=O)(=O)c2cccc(Cl)c2Cl)cc1
  24%[46.1 µM] | 2% | . | -2% | 2% | -13% | . | .
